Screening data as filed in PubChem.
D2 ag: activates the human D2 dopamine receptor | DiscoveRx PathHunter D2 beta-arrestin, luminescence, 90 min; 100% = 57 uM dopamine signal | activation, % (concentration not given with the values) | P14416 | 360,000 compounds, 0.084% hits; in the data active = activation above about 40%; inconclusive = about 15% to 40%; inactive = below about 15%; further: the text of the record calls up to 30% inactive
Target sequence (P14416 whole entry, looked up): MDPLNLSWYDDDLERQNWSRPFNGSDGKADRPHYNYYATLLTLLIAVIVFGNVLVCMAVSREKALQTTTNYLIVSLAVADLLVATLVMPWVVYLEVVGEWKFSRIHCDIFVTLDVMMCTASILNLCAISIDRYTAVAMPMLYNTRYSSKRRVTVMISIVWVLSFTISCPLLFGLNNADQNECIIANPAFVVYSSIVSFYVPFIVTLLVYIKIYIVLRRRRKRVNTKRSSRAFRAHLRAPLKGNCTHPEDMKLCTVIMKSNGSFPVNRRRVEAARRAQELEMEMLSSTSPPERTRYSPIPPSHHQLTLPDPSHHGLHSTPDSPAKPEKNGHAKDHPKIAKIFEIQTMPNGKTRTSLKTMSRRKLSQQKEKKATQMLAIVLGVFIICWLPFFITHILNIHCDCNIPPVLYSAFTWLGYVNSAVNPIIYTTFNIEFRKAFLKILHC
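Agonist mode: compounds alone added to overnight-plated D2 PathHunter cells for 90 min at 37 C, with 57 uM final dopamine (EC100) defining full response. Beta-arrestin recruitment detected by chemiluminescent reagent, read after 1 h at ambient temperature.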
ClpP mod: qHTS Assay for Activators of ClpP | ATP-dependent Clp protease proteolytic subunit (Bacillus subtilis (strain 168)), P80244 | purified B. subtilis ClpP, FRET peptide cleavage, 20 min | Potency, µM (highest dose often 57.5 µM), inactives show at the highest dose activity change, negative = active | 340,000 compounds, 1.9% hits | AID 651965, 2013; active = well fitted falling curve with a large enough effect; inconclusive = small, poorly fitted or top-dose-only effect; inactive = no such curve, though single readings can be large or run the other way; further: potency means the concentration at half of the fitted maximal effect; the source files actives as falling curves though it sought activators and does not explain the sign; nearly all actives have a fitted effect of over 65% in size; many hits overshoot -100%
Target sequence (P80244 whole entry, looked up): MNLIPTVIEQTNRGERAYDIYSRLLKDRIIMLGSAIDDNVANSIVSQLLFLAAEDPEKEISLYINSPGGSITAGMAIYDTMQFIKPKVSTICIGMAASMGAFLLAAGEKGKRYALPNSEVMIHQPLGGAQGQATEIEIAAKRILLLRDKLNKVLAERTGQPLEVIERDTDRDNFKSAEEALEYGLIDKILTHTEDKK
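Purified B. subtilis ClpP, 10 microg/mL final in Tris/HCl pH8 with KCl, BSA, glycerol and Tween-20, cleaved an Abz/nitrotyrosine-quenched decapeptide. Fluorescence (ex 320, em 430) was read at 0 and 20 min at room temperature. Delta was normalized to 5.8 microM ADEP and DMSO/no-enzyme controls.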
gsp antagonist: antagonizes gsp, the McCune-Albright syndrome mutation; 340,000 compounds, 0.4% hits; Potency, µM (doses to about 76.9 µM), without a hit: at the highest dose activity change, negative = inhibition, most hits filed as inhibitors; AID 624288; gsp-mutant cells, cAMP HTRF, 30 min; control for the full effect not named in the record; active = falling curve of any shape with a large fitted effect; inconclusive = falling curve, mostly with a smaller effect; inactive = flat or rising curve; cell line not stated here;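 further: intracellular cAMP measured with PDE inhibitor Ro 20-1724 present during compound exposure; potency means the concentration at half of the fitted maximal effect; on the % scale 0 is the no-effect control and ±100 the full control effect; nearly all actives have a fitted effect of over 65% in size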
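Cells in G418 medium, seeded 16-24 h, 37C; buffer exchange to DPBS + 1 mM CaCl2, 0.5 mM MgCl2, 0.05% BSA; cpds in DMSO + […] (300 uM stock), 30 min 37C; HTRF cAMP detection.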
Menin MLL FP FL: inhibitors of human menin-MLL interaction, wild-type MLL peptide. Fluorescence polarization, fluorescein-MLL peptide displacement from menin. FP activity change, % at 61.4 µM. 290,000 tested, under 10 active. AID 1766; inconclusive = falling polarisation curve, or a change in total fluorescence; inactive = total fluorescence flat and polarisation flat or rising; no compound was filed as active; the % refers to the polarisation; negative = inhibition;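 further: % of control where 0% means no effect; inhibitors lower the polarisation; unlabelled MLL peptide was the positive control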
Sfp PPTase inh: inhibitors of Bacillus subtilis Sfp phosphopantetheinyl transferase | Q9F4F7 | Potency, µM, for inactives: max response, negative = inhibition, most hits filed as inhibitors | Biochemical Sfp PPTase activity, qHTS | 310,000 compounds, 3.5% hits | AID 1490; active means well fitted inhibition curve with a large enough effect; inconclusive means small, poorly fitted or top-dose-only effect, or another doubt; inactive means no such curve, though single readings can be large or run the other way;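 further: the enzyme is Sfp with the accession as filed and its product quenches rhodamine fluorescence; potency means the concentration at half of the fitted maximal effect; 0% = enzyme reaction without inhibitor and -100% = no enzyme wells; top concentration of the series not given in the record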
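Step 1, compound plus 15 nM Sfp-PPTase, 15 min, room temperature. Step 2, add rhodamine-CoA (5 uM) and BHQ-2-YbbR (12.5 uM). Step 3, read 525/598 nm fluorescence at 0 and 30 min.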
gsp ag: activates gsp, the McCune-Albright syndrome mutation; Potency, µM (top dose mostly 76.9 µM), for inactives: at the top dose activation (cAMP increase), most hits filed as activators; AID 624287; 340,000 compounds, 0.13% hits; gsp mutant cells, cAMP HTRF, 30 min; control for the full effect not named in the record; active = well fitted activation curve with a large enough effect; inconclusive = small, poorly fitted or top-dose-only effect, or another doubt; inactive = no such curve, though single readings can be large or run the other way; cell line not stated here;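 further: phosphodiesterase inhibitor Ro 20-1724 added with compounds to block cAMP breakdown; potency means the concentration at half of the fitted maximal effect; nearly all actives have a fitted effect of over 60% in size; about a fifth of the inactives were tested at one dose only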
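Cells stably selected in G418 were plated at 2000/well, grown 16-24 hr, then given compounds in DMSO with the PDE inhibitor […] (300 uM solution added) for 30 min at 37C; cAMP was read by HTRF.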
PINK1 modulator: changes PINK1 expression; PINK1 immunofluorescence, high-content cytometry, 24 h; Potency, µM (top dose mostly 76.6 µM), for the others: at the top dose activation (PINK1 increase), actives largely listed as activators; 410,000 compounds, 0.2% hits; AID 624263; active = well fitted activation curve with a large enough effect; inconclusive = small, poorly fitted or top-dose-only effect; inactive = flat fitted curve, though single readings scatter; cell line not stated here;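 further: potency means the concentration at half of the fitted maximal effect; % of control where 0% means no effect; nearly all actives have a fitted effect of over 65% in size; a mitochondrial uncoupler was the plate control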
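Readout is PINK1 immunofluorescence, quantified alongside mitochondrial, cell and nuclear markers by laser-scanning microplate cytometry. Cells from a stable line were exposed to compound titrations (5 concentrations) for 24 hours, with CCCP controls.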
* marks the source's active call; other numbers are inactive results; ? = inconclusive; / = no result given; & = joins results of further samples; [ ] = dose if it differs, or a comment.

SMILES	D2 ag	ClpP mod	gsp antagonist	Menin MLL FP FL	Sfp PPTase inh	gsp ag	PINK1 modulator
CCOC(=O)c1ccccc1NC(=O)COC(=O)C1CC(=O)N(CCc2ccccc2)C1 (configuration not stated)	-3.6	-3.5%	-8%	/	/	-53%[inhibitor]	-2.2%
COc1ccccc1CNS(=O)(=O)CCNC1CC1	-1.3	1.0%	0%	/	/	/	1.7%
CC(=O)c1cccc(NC(=O)CN(c2ccccc2)S(C)(=O)=O)c1	-2.2	-0.7%	2%[15.4 µM]	-1.9	14%	2%	-1.8%
Nc1cc(-c2ccc(Cl)cc2)nn1S(=O)(=O)c1ccccc1	0.0	-2.8%	-2%	-1.8	-2%	?	7.0%
O=C(CSC1=Nc2ccccc2C2CC=NN12)Nc1ccc(F)cc1Cl (configuration not stated)	-4.0	-0.8%	4%	-2.9	-1%	-4%[15.4 µM]	1.8%
O=C(NCC(=O)N1CCCCC1)c1ccc(Br)o1	-0.7	-1.3%	3%	/	10%	?	1.2%
O=C(Cn1c(=O)c2cccn2c2ccccc21)Nc1ccc(F)cc1F	0.2	-11%	-1%	/	-2%	-24%	1.0%
O=C(NCc1ccccc1)C1=C[C@@H](c2ccc(Br)cc2)C[C@@H](OCCCCO)O1	-4.8	0.1%	-9%	15	-2%	4%	0.7%
Cc1ccc(OC(=O)C2c3ccccc3Oc3ccccc32)cc1C	-1.5	-1.1%	0%	6.0	10%	3%	5.6%
Cc1nn(-c2ccccc2)c2[nH]c(=O)cc(C(F)(F)F)c12	-0.9	/	-14%	0.3	16%	-27%	0.2%
CCC(C(=O)OCC(=O)Nc1ccc(Cl)c(S(=O)(=O)N(C)C)c1)c1ccccc1 (configuration not stated)	4.9	-4.0%	-13%	6.4	7%	?	8.2%
CCOC(=O)c1cnn(-c2nc(-c3ccc(F)cc3)cs2)c1C(F)(F)F	1.3	32µM*	0%	1.4	11%	8%	3.7%
Cn1c(C(=O)N2CCC(C(=O)N3CCOCC3)CC2)cc2sccc21	-9.2	0.6%	4%	0.0	5%	-21%	-0.6%
C/C(=N\NC(=O)CCc1ccccc1)c1ccc(Br)cc1	-2.7	/	-17%	1.4	11%	11%[15.4 µM]	0.4%
O=C(CSc1nnnn1-c1ccc(O)cc1)Nc1ccc(N2CCOCC2)c(Cl)c1	3.2	-2.6%	?	4.2	-22%	-33%	1.8%[38.3 µM]
Cc1cccc(NC(=S)NCc2cccn2C)c1	-0.1	-0.7%	-4%	-0.4	1%	-8%	2.8%[38.3 µM]
Cc1ccc(C(=O)Nn2cnnc2)cc1[N+](=O)[O-]	2.1	0.3%	11%	/	/	13%	11%[38.3 µM]
COc1ccccc1NC(=O)C(=O)NCC(c1ccco1)N1CCc2ccccc21 (configuration not stated)	-1.4	-3.7%	2%	/	/	2%[15.4 µM]	0.9%
O=C1CSC(=S)N1/N=C/c1cc(Br)c(O)c(Br)c1	-6.0	/	-15%	?	?	-3%[15.4 µM]	5.1%
CCN(CC)CCNC(=O)c1ccc(NC(=O)c2cc(-c3ccncc3)nc3ccccc23)cc1	6.0	0.6%	3%	/	/	-20%	0.9%
O=C(O)c1nn(-c2ccc(Cl)cc2)ccc1=O	-2.2	-3.5%	10%	6.7	-1%	-7%	0.3%
CC(=O)NCCNC(=O)C1Cc2c(-c3ccc4c(c3)OCO4)ccnc2O1 (configuration not stated)	-3.1	4.6%	/	/	/	/	2.7%
CN1CCN(c2cc(-c3ccccc3)nc3cc(-c4ccc(F)cc4)nn23)CC1	-3.0	22µM*	5%[15.4 µM]	-0.9	?	2%	0.4%
Cc1cccc2c(=O)cc(C)n(CC(N)=O)c12	-3.6	-1.2%	2%	3.2	-9%	-20%	-1.4%
O=C(NCc1cccc(F)c1)C1CCC(=O)N(C2CC2)C1 (configuration not stated)	0.4	-1.6%	10%	/	27%	19%	0.1%

Other entries follow.
SMILES	D2 ag	ClpP mod	gsp antagonist	Menin MLL FP FL	Sfp PPTase inh	gsp ag	PINK1 modulator
CCN1CCc2c(sc(NC(=O)Cc3ccccc3)c2C(=O)OC)C1	3.8	-12%	7%	-2.6	6%	-87%[inhibitor]	0.0%
CC1CCCN(C(=O)COC(=O)c2ccc[nH]c2=O)C1 (configuration not stated)	-3.3	-21%	8%	0.2	-27%	?	-0.7%
Cc1cccc(N(CC(=O)NC2CCCC2)C(=O)CS(=O)CC(=O)Nc2ccc3c(c2)OCO3)c1 (configuration not stated)	-3.0	0.0%	-7%	-0.3	5%	-31%[inhibitor]	2.0%[38.3 µM]
Nc1nc2c(nc(Br)n2C2CC(O)C(CO)O2)c(=O)[nH]1 (configuration not stated)	/	/	/	-3.8	17%	/	0.5%
COC(=O)CN1CCN(C(c2ccccc2)c2ccccc2)CC1	-2.1	4.5%	-6%	0.3	-4%	-27%	1.9%[38.3 µM]
COc1ccc(C2c3c(oc4ccccc4c3=O)C(=O)N2c2ccc(C)cn2)cc1OC (configuration not stated)	-1.5	0.7%	-6%	-1.1	-3%	?	2.8%
O=C(NCc1cccs1)c1ccc(Cl)c(S(=O)(=O)N2CCOCC2)c1	-2.6	0.0%	/	/	/	-44%[inhibitor]	-0.6%
C[C@H](O)[C@@H]1C(=O)N2CCc3c([nH]c4ccccc34)[C@@H]2C[C@@H]1N(C)S(=O)(=O)c1ccccc1	-5.3	4.5%	/	/	/	-34%[inhibitor]	0.9%
COC(=O)c1cccc(C23CC4(C2)[C@H](CN(Cc2cccnc2)[C@@H]4c2ccccc2)C3c2ccc(C(F)(F)F)cc2)c1 (some centres not stated)	-1.1	-3.7%	-2%	4.7&1.4	?	/	11%
O=C(/C(=N/N=C/c1ccc(O)c(O)c1O)c1ccccc1)c1ccccc1	?	-0.6%	-25%	?	-96%	-56%[inhibitor]	?
COc1ccc2c(c1)O[C@H]1c3ccc(O)cc3OC[C@@H]21	-6.3	?	-3%	/	/	/	0.3%
Cc1ccc(C(O)c2ncc(-c3ccc(F)cc3)[nH]2)cc1F (configuration not stated)	-2.0	-0.1%	/	/	/	/	-0.9%
O=[N+]([O-])c1ccccc1SN(Cc1ccccc1)c1ccccn1	-2.7	-7.9%	-2%	-0.1	-18%	?	7.5%
O=C1C(Cl)=C(NCCc2ccccc2)C(=O)N1CCc1ccccc1	-0.1	-0.8%	17%	3.0	-5%	24%	22%
Cc1ccccc1CC(=O)N1CC(C)OC(C)C1 (configuration not stated)	9.6	-1.5%	4%	-0.7	8%	14%	1.3%
CCN1C(=O)/C(=C/c2ccc(C)s2)NC1=S	-2.9	-0.3%	13%	19	7%	-30%	0.4%
CCC1CCCCN1CCCNC(=O)c1cn(CC(C)C)c(=O)c2cc(OC)c(OC)cc12 (configuration not stated)	-1.9	-29%	14%	2.5	-20%	11%	-0.8%
CCC1(c2ccc(Cl)cc2)NC(=S)N(c2ccccc2)N1 (configuration not stated)	0.6	2.0%	-13%	3.0	56µM*	-10%	?
O=C(Nc1nc(-c2cccs2)c(-c2cccs2)s1)C1(c2ccccc2)CC1	-8.9	?	-1%	-2.4	9%	16%	3.9%
O=C(CSc1nccn1Cc1ccccc1)NC1CCCC1	-1.3	-1.1%&-1.4%	2%	/	1%	-12%	5.4%&-3.8%
CN1OC[C@@H]2CN(Cc3cc(Cl)cc(Cl)c3)[C@H](c3cccc(Br)c3)C[C@@H]21	-1.8	-0.3%	-15%	/	/	/	1.2%
CC(C)NC(=O)C1(C)CCN1C(=O)c1cccc(Cl)c1 (configuration not stated)	3.0	0.1%	/	/	/	/	-0.7%
COc1ccc(C2CCN(CC(=O)N(C)C)CC2O)cc1 (configuration not stated)	0.0	-0.1%	-5%	?	14%	-59%[inhibitor]	-0.7%
Cc1ccc(NC(=O)/C=C\C(=O)O)c([N+](=O)[O-])c1	-3.7	1.5%	9%	2.4	-7%	-3%	0.1%
COc1ccccc1N1CCN(C(=O)c2ccncc2)CC1	-1.3	1.2%	-4%	6.2	8%	?	15%[38.3 µM]

The list continues.
SMILES	D2 ag	ClpP mod	gsp antagonist	Menin MLL FP FL	Sfp PPTase inh	gsp ag	PINK1 modulator
Cc1c(Cl)cccc1NC(=S)N1CCOCC1	-1.4	-0.4%	6%	-1.9	-10%	-23%	-0.1%
Cc1cc(C)cc(C(=O)NCC(=O)OCC(=O)Nc2ccc(C)cc2Br)c1	-2.7	/	-11%	0.9	3%	-8%[15.4 µM]	1.3%
O=C(CSc1nnc(-c2ccncc2)n1Cc1ccco1)N1c2ccccc2Sc2ccc(Cl)cc21	0.7	-10%	-15%	-0.4	?	1%	-1.5%
COc1ccc2c(C)cc(SCC(=O)Nc3cccnc3Cl)nc2c1	-5.2	/	15%	3.5	-9%	12%[15.4 µM]	?
COC(=O)CSc1nnc(-c2ccco2)n1Cc1ccco1	-1.3	0.5%	-5%	1.2	22µM*	6%	0.3%
CCc1nc2ccc(C(=O)NCCN3CCOCC3)cn2c1N(CC)CCOC	-2.7	-6.5%	/	/	/	/	0.2%
CC(C)OC(=O)c1c(NC(=O)c2cnn3c2NC(c2ccccc2)CC3C(F)(F)F)sc2c1CCCC2 (configuration not stated)	-0.7	11%	13%[15.4 µM]	2.4	5%	16%	4.4%
CC(C)N(Cc1ccccc1)C(=O)COC(=O)c1ccccc1SCC(=O)N1CCCC1	0.6	/	-5%	/	/	28%[15.4 µM]	-3.0%
O=C(CC(=O)c1ccccc1)Nc1ccc2c(c1)OCCO2	-5.1	1.4%	-2%	-2.0	9%	-20%	2.0%
COc1ccc(/C=C/C(=O)O/N=C(\N)c2ccccc2)cc1OC	14	?	-4%	1.9	-4%	-12%	9.2%
Cc1cc(C)n(-c2nc3c(c(=O)[nH]c(=O)n3C)n2Cc2ccccc2)n1	-4.5	0.4%	7%	0.1	22%	-2%	-0.7%
O=C(c1ccco1)N1CCN(C(=O)c2cc(-c3ccc(F)cc3)no2)CC1	-2.4	1.1%	2%	/	6%	-12%	2.1%
OCCN(CC#CCn1c2ccccc2c2ccccc21)CCO	0.9	-15%	3%	3.4	-9%	3%	1.9%
